Source: PubChem
ClpP mod = qHTS Assay for Activators of ClpP. ATP-dependent Clp protease proteolytic subunit (Bacillus subtilis (strain 168)), P80244. actives 1.9% (n = 340,000). AID 651965, 2013. Potency, µM (titrated, usually from 57.5 µM), for inactives: at the highest dose activity change, negative = active. purified B. subtilis ClpP, FRET peptide cleavage, 20 min; active = well fitted falling curve with a large enough effect; inconclusive = small, poorly fitted or top-dose-only effect; inactive = no such curve, though single readings can be large or run the other way; further: potency means the concentration at half of the fitted maximal effect; the source files actives as falling curves though it sought activators and does not explain the sign; nearly all actives have a fitted effect of over 65% in size; many hits overshoot -100%
Target sequence (P80244 whole entry, looked up): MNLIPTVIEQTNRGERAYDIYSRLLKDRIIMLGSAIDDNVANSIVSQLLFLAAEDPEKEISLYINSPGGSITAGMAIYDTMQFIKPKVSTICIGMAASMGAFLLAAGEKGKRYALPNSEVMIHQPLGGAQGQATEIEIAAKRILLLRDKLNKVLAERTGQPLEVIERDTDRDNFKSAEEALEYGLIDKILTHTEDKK
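ClpP 10 microg/mL final, pH 8 Tris/KCl buffer with BSA, glycerol, Tween-20; compound pinned in; FRET-FV substrate; RT 20 min; Ex320/Em430; ΔFRET vs ADEP 5.8 microM, DMSO, no enzyme.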
gsp agonist = agonists of gsp mutant (McCune-Albright syndrome); gsp mutant cells, cAMP HTRF, 30 min; control for the full effect not named in the record; Potency, µM (top dose mostly 76.9 µM), without a hit: at the highest dose activation (cAMP increase), actives largely listed as activators; actives 0.13% (n = 340,000); active = well fitted activation curve with a large enough effect; inconclusive = small, poorly fitted or top-dose-only effect, or another doubt; inactive = no such curve, though single readings can be large or run the other way; cell line not stated here;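 further: phosphodiesterase inhibitor Ro 20-1724 added with compounds to block cAMP breakdown; potency means the concentration at half of the fitted maximal effect; nearly all actives have a fitted effect of over 60% in size; about a fifth of the inactives were tested at one dose only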
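Cells in DMEM/10% FBS with G418 were pretreated with compounds in DMSO plus […] (300 uM stock) for 30 min at 37C. cAMP was measured by HTRF (cAMP-d2 plus anti-cAMP antibody-K) after 30 min at room temperature.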
TRPV1 potentiator = human TRPV1 potentiation; potentiation, % at 8.33 µM; Q8NER1; actives 0.02% (n = 320,000); TRPV1-expressing cells, Fluo-8 calcium influx, capsaicin EC20 potentiation; host cell line not named in the record; control for the full effect not named in the record; active means potentiation above 80%; inconclusive means 30% to 80%; inactive means below 30%; further: 0% is about no effect
Target sequence (Q8NER1 whole entry, looked up): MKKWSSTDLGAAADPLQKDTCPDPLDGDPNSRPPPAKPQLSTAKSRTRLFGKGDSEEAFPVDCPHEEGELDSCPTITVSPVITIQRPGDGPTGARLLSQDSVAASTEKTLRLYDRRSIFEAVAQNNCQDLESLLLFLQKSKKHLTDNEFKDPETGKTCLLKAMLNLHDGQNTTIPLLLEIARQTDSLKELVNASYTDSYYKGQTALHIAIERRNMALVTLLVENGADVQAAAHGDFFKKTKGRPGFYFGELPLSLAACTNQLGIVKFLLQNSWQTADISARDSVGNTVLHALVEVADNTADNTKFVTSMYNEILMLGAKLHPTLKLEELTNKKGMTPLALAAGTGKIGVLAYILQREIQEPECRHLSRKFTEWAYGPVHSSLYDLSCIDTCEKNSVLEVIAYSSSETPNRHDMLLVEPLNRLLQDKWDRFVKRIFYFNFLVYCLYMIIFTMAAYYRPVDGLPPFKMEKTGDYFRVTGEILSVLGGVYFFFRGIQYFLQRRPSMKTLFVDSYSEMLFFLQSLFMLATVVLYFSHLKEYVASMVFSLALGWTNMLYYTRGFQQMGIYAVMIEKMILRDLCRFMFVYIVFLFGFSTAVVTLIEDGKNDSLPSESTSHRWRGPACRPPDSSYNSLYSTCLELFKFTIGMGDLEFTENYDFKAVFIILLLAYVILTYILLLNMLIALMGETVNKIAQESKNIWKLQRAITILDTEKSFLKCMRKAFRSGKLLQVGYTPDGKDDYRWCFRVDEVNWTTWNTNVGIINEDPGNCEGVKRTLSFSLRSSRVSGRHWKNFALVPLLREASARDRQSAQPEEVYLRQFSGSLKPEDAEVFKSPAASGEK
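Cells expressing TRPV1 were dye-loaded with Fluo-8 and read kinetically: 10 s baseline, 3 min after compound (agonist portion), then 2 min after EC20 capsaicin (allosteric enhancer portion). Calcium-bound dye fluorescence at 480/520 nm.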
Menin-MLL FL inh = inhibitors of human menin-MLL interaction, wild-type MLL peptide | Fluorescence polarization, fluorescein-MLL peptide displacement from menin | FP activity change, % at 61.4 µM | 290,000 tested, under 10 active; inconclusive = falling polarisation curve, or a change in total fluorescence; inactive = total fluorescence flat and polarisation flat or rising; no compound was filed as active; the % refers to the polarisation; negative = inhibition;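 further: % of control where 0% means no effect; inhibitors lower the polarisation; unlabelled MLL peptide was the positive control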
gsp antag = gsp mutant antagonism | gsp-mutant cells, cAMP HTRF, 30 min; control for the full effect not named in the record | Potency, µM (top dose mostly 76.9 µM), for inactives: at the highest dose activity change, negative = inhibition, actives largely listed as inhibitors | actives 0.4% (n = 340,000) | AID 624288; active = falling curve of any shape with a large fitted effect; inconclusive = falling curve, mostly with a smaller effect; inactive = flat or rising curve; cell line not stated here;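 further: intracellular cAMP measured with PDE inhibitor Ro 20-1724 present during compound exposure; potency means the concentration at half of the fitted maximal effect; on the % scale 0 is the no-effect control and ±100 the full control effect; nearly all actives have a fitted effect of over 65% in size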
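G418-selected cells were plated in DMEM/10% FBS for 16-24 h at 37C, then treated with compounds plus the PDE inhibitor […] (300 uM solution added) for 30 min at 37C. Intracellular cAMP was measured by HTRF after 30 min lysis at room temperature.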
Sfp inh = blocks B. subtilis Sfp PPTase activity | Biochemical Sfp PPTase activity, qHTS | actives 3.5% (n = 310,000) | Potency, µM, for inactives: max response, negative = inhibition, actives largely listed as inhibitors | Q9F4F7; active means well fitted inhibition curve with a large enough effect; inconclusive means small, poorly fitted or top-dose-only effect, or another doubt; inactive means no such curve, though single readings can be large or run the other way;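 further: the enzyme is Sfp with the accession as filed and its product quenches rhodamine fluorescence; potency means the concentration at half of the fitted maximal effect; 0% = enzyme reaction without inhibitor and -100% = no enzyme wells; top concentration of the series not given in the record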
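Sfp 15 nM + cpd, 15 min RT; start w/ rhodamine-CoA 5 uM, BHQ-2-YbbR 12.5 uM (final); 50 mM Hepes pH 7.6, 10 mM MgCl2, 0.01% NP-40, 0.01% BSA; read 525/598 nm at 0 and 30 min.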
TRPML1 blocker = human mucolipin-1 channel inhibition. TRPML1-inducible cells, Ca2+ dye fluorescence, FDSS; stronger effect = lower value; inhibition of EC80 agonist-evoked calcium signal. activity change, negative = inhibition, % (no concentration beside the values). actives 0.02% (n = 390,000). AID 624415; in the data active means activity change below about -50%; inconclusive means about -30% to -50%; inactive means above about -30%;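 further: stimulus is agonist 54-4 at its EC80 concentration; on the % scale 0 is the no-effect control and ±100 the full control effect; compound concentration not given in the record; the text of the record puts the active cut at -80%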
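Tet-induced TRPML1-DL cells loaded with Ca8 no-wash calcium dye were read kinetically on FDSS. Compound addition was followed by EC80 agonist 54-4 (4 uM final); inhibition was read over 110 s.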
The depositor's hits bear a star; ? = inconclusive; . = no result given; & = joins results of further samples; [ ] = dose if it differs, or a comment.

SMILES	ClpP mod	gsp agonist	TRPV1 potentiator	Menin-MLL FL inh	gsp antag	Sfp inh	TRPML1 blocker
CCN1CC2=C(OC(N)=C(C#N)C2c2cccs2)/C(=C\c2cccs2)C1 (stereo not drawn)	-4.9%	-1%	-5	?	?	?	12
Cc1ccc(C(=O)CSc2nccn2-c2ccccc2)cc1	28µM*	-21%	-9	11	7%	?	?
O=C(N1CCOCC1)N(Cc1ccccc1)c1ccccn1	-0.6%	1%	0	0.9	-6%	9%	5
CN(CCCn1cnc2c(OCc3ccccc3)ncnc21)Cc1ccco1	2.9%	27%	.	.	.	.	-2
c1cncc(-c2nc(NCC3CCCO3)c3ccccc3n2)c1 (stereo not drawn)	.	25%	-5	0.3	-3%	-3%	29
COc1cccc(CNC(=O)CCN2C(=O)[C@@H]3Cc4ccccc4CN3C2=O)c1	-1.0%	?	0	0.6	8%	13%	0
N#Cc1cc([N+](=O)[O-])ccc1NC(=O)COC(=O)C1CCC(=O)N1 (stereo not drawn)	-8.5%	-9%	.	.	-3%	.	1
O=C(OCCN1CCCCC1)C1(c2ccccc2)CCCC1	.	1%[15.4 µM]	-8	4.3	.	-1%	6
COc1ccc(C2C(C(=O)NCc3ccccn3)c3ccccc3C(=O)N2C)cc1OC (stereo not drawn)	1.1%	-7%	1	-2.0	-3%	10%	-2
CC1(C)CC(=O)C2=C(C1)N(c1ccccc1)C(N)=C(C#N)C2c1ccsc1 (stereo not drawn)	-2.5%	-35%[inhibitor]	-14	-2.6	-13%	3%	25
c1coc(CSCc2cn3cccnc3n2)c1	-5.4%	-6%	5	-1.4	15%	-12%	-9
COc1ccc(-c2cc(C)nc(SCc3cccc(C(=O)O)c3)n2)cc1	-13%	1%	4	4.3	?	1%	10
Oc1[nH]c2ccc(Br)cc2c1N=NC(=S)N1CCOCC1	-5.2%	-23%	21	-2.5	-7%	-25%	.
COc1ccc(Cl)cc1C(=O)Nc1ccc2c(c1)OCO2	4.7%	-13%	11	-2.2	-21%	-8%	-2
CCOC(=O)C1(CC2CC2)CCN(Cc2cnc(-c3ccc(OC)cc3)nc2)CC1	-1.7%	-9%	-5	3.2	-15%	1%	-1
CN(C)CC(C)(C)CNC(=S)Nc1ccc(S(=O)(=O)N2CCOCC2)cc1	0.8%	-2%	4	0.4	14%	7%	7
Cc1cccc(NC(=O)c2c([N+](=O)[O-])c(C(C)(C)C)nn2C)c1	-1.6%	-1%[15.4 µM]	-12	2.0	8%	4%	-5
O=C(Cn1cnc2c(nnn2-c2cccc(Cl)c2)c1=O)NCc1ccccc1	0.8%	-38%[inhibitor]	-1	-0.2	2%	6%	-7
CC(C)(C)OC(=O)C[C@@H]1C/C=C\C[C@@H](CC(=O)N(CCO)Cc2ccccc2)C(=O)NCCOC1=O	-2.4%	.	.	.	7%	.	32
COc1ccc(C(=O)O)cc1S(=O)(=O)Nc1cccc(C)c1	-1.7%	?	-10	4.0	2%	1%	-2
CCOc1ccccc1CNS(=O)(=O)c1ccc2c(c1)C(C)(C)C(=O)N2C	-0.6%&-0.2%	1%	-3	-7.5	1%	11%	-12&1
COCCC1CCCCN1C(=O)c1cc(COc2ccc(-n3cncn3)cc2)on1 (stereo not drawn)	?	-34%[15.4 µM]	6	.	-7%	18%	-4
O=C(CCNC(=O)Cn1cnc2ccccc2c1=O)NCC1COc2ccccc2O1 (stereo not drawn)	-1.3%	26%	23	0.0	18%	4%	-3
CNCc1cc(Cl)cc(OC)c1OC(C)C	.	1%	-41	-0.4	7%	14%	-1
Cc1cccc(C)c1NC(=O)CNC(=O)CNC(=O)c1ccc2ccccc2c1	-13%	-63%[inhibitor]	.	.	.	.	-6
Cc1ccc(C(=O)CSc2nnc(-c3ccco3)o2)o1	-3.8%	22%	7	-1.4	-4%	3%	-17
COc1ccc(C(=O)NNC(=O)C(=O)NCc2ccccc2)cc1	0.8%	-6%[15.4 µM]	3	0.7	4%	24%	13
O=C(CSc1ccccc1C(=O)NCCCN1CCCC1=O)NCc1ccco1	-20%	16%	-29	1.6	1%	45µM*	-7
O=C(NC(=S)Nc1cccc(Cl)c1N1CCCCC1)c1ccc2c(c1)OCCO2	-1.6%	-10%	1	1.2	-8%	14%	10
Cc1ccc(NC(=O)NCCCN2CCOCC2)cc1	1.0%	7%	8	-5.7	-3%	13%	9
COc1cc(OC)nc(NC(=O)CN2CCN(c3ccc(F)cc3)CC2)n1	-4.1%	-46%[inhibitor]	6	0.2	0%	23%	-1
COc1ccc(S(=O)(=O)NCC(=O)NCc2cc(=O)n(C)c(=O)n2C)cc1F	1.2%	-1%	-5	3.5	14%	15%	14
Cn1c(=O)c2sccc2n2c(CCCC(=O)N3CCN(c4ccccn4)CC3)nnc12	1.5%	?	?	.	0%	9%	9
COc1cccc(COCCN2CCN(S(=O)(=O)c3ccc(C)cc3)CCC2=O)c1	-0.7%	1%	-9	6.6	-13%	3%	-8
COC(=O)Cn1c(O)c(N=NC(=O)CNC(=O)c2ccc3c(c2)OCCO3)c2ccccc21	0.2%	-28%	4	0.4	1%	10%	12
COc1cc(C)nc(NS(=O)(=O)c2ccccc2Cl)n1	1.1%	-1%[15.4 µM]	3	5.2	-4%	12%	3
CCOC(=O)c1c(NC(=O)CSc2n[nH]c(-c3ccco3)n2)sc(C)c1C	1.1%	0%	-28	13	12%	-10%	20
Cc1ccc(N2CCN(c3ccc(C)cc3)C2c2ccncc2)cc1	?	-44%[inhibitor]	-4	-1.9	2%	45µM*	26
COc1ccc(/C([O-])=C(/C(=S)Nc2ccc(C)c(C)c2)n2c[n+](C)c3ccccc32)cc1OC	-4.3%	-6%[15.4 µM]	-1	-4.9	-6%	45µM*	2
CCc1ccccc1S(=O)(=O)Cc1ccc(C(=O)NC(C)C)o1	-1.9%	?	.	.	6%	.	1
CC1Cn2c(nnc2-c2cc3ccccc3cc2O)S1 (stereo not drawn)	-22%	11%	26	-2.0	-20%	-17%	-2
Cc1cc(=O)c(C(=O)O)cn1-c1ccc(C(C)C)cc1	.	-59%[inhibitor]	5	2.5	-5%	14%	6
Cc1cc(O)c(-c2cc(C(=O)NCc3ccc4c(c3)OCO4)[nH]n2)cc1C	-1.1%	4%	3	-1.1	6%	-5%	2
COc1cc(C)c(/C=C(\C#N)C(=O)Nc2cccc(C)c2)cc1C(C)C	-1.3%	-16%[15.4 µM]	-27	4.3	2%	-6%	68
Cc1cccnc1NC(=O)c1nn(C)c2c1CS(=O)(=O)c1ccccc1-2	-4.2%	?	12	1.5	1%	16%	-9
CC(=O)Nc1ccc(SCC(=O)N(CCC#N)c2ccc(C)cc2)cc1	-2.0%	23%	-8	0.0	-13%	2%	-3
CCN1CCN(S(=O)(=O)c2ccc(Cl)c(C(=O)N(C)CCOc3ccc(Cl)cc3)c2)CC1	1.2%	-1%	-4	.	-18%	.	-11
COCCN(C(=O)CNC(=O)c1ccco1)C(C(=O)NC1CCCC1)c1ccc(OC)cc1 (stereo not drawn)	.	-5%[15.4 µM]	12	-3.4	18%	14%	42
O=C(O)c1ccc(Nc2ccc([N+](=O)[O-])c3nonc23)cc1	.	2%	3	23	-2%	?	-14
CCc1nc2ccccc2n1CC(=O)N1CCN(S(=O)(=O)c2cccc(C(F)(F)F)c2)CC1	-1.6%	-22%	-16	2.5	3%	11%	-14
(further entries)
SMILES	ClpP mod	gsp agonist	TRPV1 potentiator	Menin-MLL FL inh	gsp antag	Sfp inh	TRPML1 blocker
Cc1cc(C)n2nc(C(=O)OCC(=O)N(CCC#N)c3ccc(F)cc3)nc2n1	-2.1%	6%	4	.	4%	.	9
CC(=O)C1=C(C)N(Cc2ccccc2)C(=O)N[C@H]1c1cccc(C(F)(F)F)c1	-3.5%	.	-5	0.5&5.3	-5%	15%&-2%	18
C=CCN1C(=O)C2(OCCCO2)c2cc(Cl)ccc21	-0.2%	-2%	-8	-0.8	-8%	10%	14
Oc1ccc(N2CCN(c3ncnc4sc5c(c34)CCC5)CC2)cc1	-0.7%	3%	-42	-4.2	?	56µM*	1
Cc1cc(Nc2cccc(Cl)c2)nc(NCc2ccccc2)n1	?	-91%[inhibitor]	-8	5.1	-12%	16µM*	-6
COc1ccc(C)cc1NC(=O)CSc1nc2ccccc2nc1N1CCCCC1	-25%	-81%[inhibitor]	8	-1.5	-6%	-15%	25
O=C(COc1ccc(Br)cc1Cl)NC(=O)Nc1ccc2c(c1)OCCO2	.	2%	9	0.0	-3%	3%	-3
O=C(/C=C/c1cccnc1)c1ccc([N+](=O)[O-])cc1	.	13%	-3	-1.1	-15%	?	-11
CSC1=NC2(CCCCC2)C2=C(CCCC2)N1	-0.4%	?	4	-4.3	2%	11%	14
CC(C)CNC(=O)c1nn(Cc2ccccc2)c(=O)c2ccccc12	.	14%	-13	-4.2	-13%	-21%	-9

Reprinted from the part before: two compounds, followed by the next part.
SMILES	ClpP mod	gsp agonist	TRPV1 potentiator	Menin-MLL FL inh	gsp antag	Sfp inh	TRPML1 blocker
CSC1=NC2(CCCCC2)C2=C(CCCC2)N1	-0.4%	?	4	-4.3	2%	11%	14
CC(C)CNC(=O)c1nn(Cc2ccccc2)c(=O)c2ccccc12	.	14%	-13	-4.2	-13%	-21%	-9
CCN(CC)C(=S)SCC(=O)Nc1ncc2c(n1)CCCC2=O	.	9%[15.4 µM]	-6	1.4	9%	14%	-3
O=C(COC(=O)c1ccccc1NS(=O)(=O)c1cccs1)NC1CCCCC1	-1.7%	11%[15.4 µM]	7	-5.6	-5%	-5%	15
O=C(CCNS(=O)(=O)c1ccc(Br)cc1)NCc1ccc2c(c1)OCO2	0.0%	-12%	-2	2.0	3%	7%	-12
O=C(CCc1ccccc1)N1CCN(c2ccc(Cl)cc2)CC1	0.5%	22%	-23	?	-3%	1%	-6
COc1ccc(C(CNC(=O)c2ccc(Cl)s2)N2CCOCC2)cc1 (stereo not drawn)	2.0%	-2%[15.4 µM]	28	.	0%	.	-12
CCCCCC(=O)NC(NC(=S)N1CCOCC1)C(Cl)(Cl)Cl (stereo not drawn)	-1.9%	0%	-8	4.3	-12%	-5%	-9
O=C1N=C(N2CCOCC2)S/C1=C1\C(=O)N(Cc2ccccc2)c2ccc(Br)cc21	.	.	18	1.8	.	-2%	.
